# Screening results deposited in PubChem BioAssay by ICCB-Longwood Screening Facility, Harvard Medical School.
# GIV-Gai inh: GIV-Galpha-i interaction inhibition; P08753; Galpha-i3/FITC-GIV peptide fluorescence polarization, 90 min; stronger effect = lower value; scaled: aluminum fluoride 0%, vehicle 100%; percent of control (FP), % (test concentration not listed); 210,000 compounds, 0.42% hits; AID 1224905;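 active = replicate mean at 85% of control or lower, very high polarization wells dropped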;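 note: wells of about 15 µL received 100 nL stock; the first replicate is given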
# Target sequence (P08753 whole entry, looked up): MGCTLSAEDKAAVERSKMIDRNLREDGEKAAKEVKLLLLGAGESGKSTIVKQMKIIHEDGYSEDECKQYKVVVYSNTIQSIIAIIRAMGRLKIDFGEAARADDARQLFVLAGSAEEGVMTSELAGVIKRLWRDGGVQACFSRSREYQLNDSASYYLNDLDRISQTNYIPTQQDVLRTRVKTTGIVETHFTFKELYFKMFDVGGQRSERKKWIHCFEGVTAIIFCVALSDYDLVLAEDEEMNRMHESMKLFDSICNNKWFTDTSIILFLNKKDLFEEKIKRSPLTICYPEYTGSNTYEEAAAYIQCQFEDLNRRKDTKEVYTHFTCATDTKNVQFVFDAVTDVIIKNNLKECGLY
# Sa growth 42C: S. aureus growth inhibition; 170,000 compounds, 0.53% hits; AID 720641; S. aureus RN4220 growth, OD600, 20 h, 42 °C; stronger effect = lower value; relative growth, % (no concentration beside the values);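 active = growth at 42 °C up to 50% and 20 or more points under that at 30 °C, or under 10% at both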;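 note: 300 nL library stock went into each well; scaled to the means of positive and negative controls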
# HCMV NEC inh: inhibitors of HCMV UL50-UL53 nuclear egress complex interaction; 190,000 compounds, 0.15% hits; AID 1918969; inhibition, % (concentration not given with the values); HTRF UL50-UL53 interaction, normalized percent inhibition;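 active = both replicates at 50% or more, plus weaker picks with an unusually low signal ratio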;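 note: stock transfer was 100 nL into about 20 µL; 0% = negative control wells and 100% = wells with untagged competitor protein; inactives centre near -12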
# Sa growth 42C second temp: recorded beside Sa growth 42C, whose call it bears; relative growth, %; measured here: growth at 30 °C;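 optical density after 20 h as mean of two plates; 100% = untreated growth and lower means inhibition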
# An asterisk follows results filed as active; . = not tested or not shown; & = joins results of further samples.
SMILES,GIV-Gai inh,Sa growth 42C,Sa growth 42C second temp,HCMV NEC inh
CCOC(=O)N1CCN(C(=O)C2CC(c3ccc(OC)c(OC)c3)=NO2)CC1 (configuration not stated),102.9,99.6,93.9,-16.3
COc1ccc(NC(=O)Cn2nc(-n3cccc3)c3c(C)cc(C)nc32)cc1,111.5,.,.,-11.9
CC(=O)Nc1ccc(C(=O)NN)cc1,.,90.2,77.5,-5.5
CCOC(=O)c1c(C)n(-c2ccccc2)c2ccc(OC(=O)c3ccc(-c4ccccc4)cc3)cc12,106.3,.,.,-5.4
CCN(CC)CCCN1C(=O)C2C3C=CC(C2C1=O)C1C2C(=O)N(CCCN(CC)CC)C(=O)C2C31 (configuration not stated),103.9,.,.,-17.9
CC(=O)Nc1nonc1NC(=O)C12CC3CC(CC(C3)C1)C2,.,76.0,77.3,10.1
CC12CCC(C(=O)Nc3ccccc3)(OC1=O)C2(C)C (configuration not stated),105.3,123.4,95.4,-9.6
O=C(NCc1ccccc1Cl)c1ccc2c(c1)N(Cc1ccccc1)C(=O)CS2,100.3,113.4,72.8,.
CCc1ccccc1NC(=O)N1CCC(NC(=O)C(Cc2ccccc2)NC(C)=O)CC1 (configuration not stated),100.7,99.2,82.6,-7.5
CCOC(=O)c1scc(-c2ccc(C)cc2)c1S(=O)(=O)Nc1ccc(F)c(F)c1,104.1,88.5,91.9,.
COc1ccc(Cc2nn3c(Cc4ccc(OC)cc4)nnc3s2)cc1,107.2,.,.,-16.2
Cc1n[nH]c(C)c1CCCOc1ccccc1,98.5,8.3*,-0.7*,.
COc1cccc(CNC(C)C23CC4CC(CC(C4)C2)C3)c1OCc1cccs1 (configuration not stated),100.6,78.8,26.8,.
COc1ccc(CCNC(=O)c2ccc(Cn3c(=O)c4ccccc4n(Cc4cccc(C)c4)c3=O)cc2)cc1OC,108.3,95.2,102.0,6.4
COc1ccc(-c2cc(C(F)(F)F)nc(SC3CC(O)C4OCC3O4)n2)cc1OC (configuration not stated),.,94.5,78.8,-3.1
O=NC1=C(c2c(O)[nH]c3ccccc23)CCCC1,100.6,79.3,76.4,-46.0
CCc1ccc(NC(=O)C2CC3CCCN3C23C(=O)Nc2ccccc23)cc1 (configuration not stated),108.5,105.7,113.0,2.4
CC1CN=C(N(C(=O)Nc2ccc(Cl)cc2)C(C)c2ccccc2)S1 (configuration not stated),101.6,85.7,87.6,-37.4
CC(Oc1ccccc1Cl)C(=O)N1CCN(CCc2ccccn2)CC1 (configuration not stated),102.4,98.0,81.2,7.2
COc1ccc2c(CC(=O)Oc3ccc(-c4ccc(C#N)cc4)cc3)coc2c1,.,103.8,94.7,-36.8
O=C(OCc1cc(=O)oc2cc(O)ccc12)c1cc(Br)ccc1O,.,72.1,62.0,-14.3
N#Cc1cc(C#N)c(=S)[nH]c1N,.,73.7,88.1,-9.4
CC(=O)N1CCCc2cc(S(=O)(=O)N3CCC(C(=O)NCc4ccc(N(C)C)cc4)CC3)ccc21,104.0,101.8,87.2,.
CCOC(=O)CNC(=O)c1sc2nc(C)nc(N3CCN(c4ccccn4)CC3)c2c1C,99.6,.,.,-48.2

# Next section, starting with the last 7 of the part before.
SMILES,GIV-Gai inh,Sa growth 42C,Sa growth 42C second temp,HCMV NEC inh
CC1CN=C(N(C(=O)Nc2ccc(Cl)cc2)C(C)c2ccccc2)S1 (configuration not stated),101.6,85.7,87.6,-37.4
CC(Oc1ccccc1Cl)C(=O)N1CCN(CCc2ccccn2)CC1 (configuration not stated),102.4,98.0,81.2,7.2
COc1ccc2c(CC(=O)Oc3ccc(-c4ccc(C#N)cc4)cc3)coc2c1,.,103.8,94.7,-36.8
O=C(OCc1cc(=O)oc2cc(O)ccc12)c1cc(Br)ccc1O,.,72.1,62.0,-14.3
N#Cc1cc(C#N)c(=S)[nH]c1N,.,73.7,88.1,-9.4
CC(=O)N1CCCc2cc(S(=O)(=O)N3CCC(C(=O)NCc4ccc(N(C)C)cc4)CC3)ccc21,104.0,101.8,87.2,.
CCOC(=O)CNC(=O)c1sc2nc(C)nc(N3CCN(c4ccccn4)CC3)c2c1C,99.6,.,.,-48.2
CC(C)(C)CC(=O)NN1C(=O)c2cccc3cccc(c23)C1=O,.,100.2,90.7,-115.5
COc1cccc2sc(N(CCN(C)C)C(C)=O)nc12,100.9,92.8,86.5,-6.7
CCN1C(=O)c2ccccc2S(=O)c2ccc(C(=O)NCc3ccc(C)cc3)cc21 (configuration not stated),97.1,94.1,76.7,-26.8
c1ccc(CSc2nnc(-c3ccco3)n2-c2ccccc2)cc1,.,107.7,129.7,3.1
O=C(CCc1nc2sc3c(c2c(=O)[nH]1)CCCCC3)Nc1ccc(F)c(Cl)c1,95.6,.,.,-28.4
O=C(CSc1nc(=O)n(CCN2CCOCC2)c2c1CCC2)Nc1ccc(F)cc1F,100.9,106.9,90.8,.
O=C(CCSCc1cccc(Cl)c1)NCCc1ccc(Cl)cc1,102.6,111.6,92.0,.
CC(C)(C)c1ccc(CN(Cc2ccco2)c2cnc(S(C)(=O)=O)nc2C(=O)Nc2ccc(F)cc2)cc1,104.7,92.1,90.3,6.6
COc1ccccc1C(=O)Nc1ccc(S(=O)(=O)NC(C)C)cc1,99.2,103.7,89.8,-2.7
Cc1ccc(NC(=O)COc2cccc3c2CCN(Cc2cccnc2)C3=O)c(C)c1,99.9,91.4,75.8,-26.1
O=S(=O)(c1ccc(F)cc1)N1CCCN(c2nc3ccccc3n3cccc23)CC1,101.6,.,.,-27.4
O=C(Cc1csc(NC(=O)C2CC2)n1)NC1CC1,103.3,.,.,-2.2
O=C1OC2(CCCCC2)OC(=O)C1=CNc1ccc(Cl)cc1C(F)(F)F,101.8,102.1,94.4,.
CCCN(CCC)CCNC(=O)c1nn(C)c2c1CS(=O)(=O)c1ccccc1-2,107.3,121.6,101.2,-5.0
COc1ccc(OC)c(NC(=O)c2cnc3sccn3c2=O)c1,100.8,93.5,92.0,-10.9
O=C(Nc1nccs1)c1ccccc1-c1nc(-c2ccc(F)cc2)no1,93.1,.,.,-5.4
CCOC(=O)Cn1c(=O)cc(C)c2c(C)nn(-c3cccc(F)c3)c21,107.3,93.0,94.7,.
CC1CCNC(c2cccn2C)CC1 (configuration not stated),.,101.2,107.5,19.2
Cc1cc(OCc2nc(C)c(C(=O)NCC(C)C)s2)ccc1Cl,105.3,.,.,-17.8
CN1CCN(S(=O)(=O)c2cccc(C(=O)Nc3cc(C(F)(F)F)cc(C(F)(F)F)c3)c2)CC1,.,91.6,98.2,0.6
Cc1csc2nc(CSc3nc4ccccc4s3)c(Br)n12,103.6,.,.,-5.6
O=C(Nc1ccc(-c2cn3cccnc3n2)cc1)c1cc(Br)ccc1Cl,102.0,108.3,84.0,-41.1
COc1ccc(-c2nc(CCNC(=O)C(C)Oc3ccc(C)c(C)c3)cs2)cc1 (configuration not stated),98.0,.,.,-23.2
O=C(COc1ccc2oc3c(c2c1)CCCC3)Nc1ccncc1,.,92.4,88.5,-29.6

# Compounds listed so far that have a CF3 group, in the order listed:
SMILES,GIV-Gai inh,Sa growth 42C,Sa growth 42C second temp,HCMV NEC inh
COc1ccc(-c2cc(C(F)(F)F)nc(SC3CC(O)C4OCC3O4)n2)cc1OC (configuration not stated),.,94.5,78.8,-3.1
O=C1OC2(CCCCC2)OC(=O)C1=CNc1ccc(Cl)cc1C(F)(F)F,101.8,102.1,94.4,.
CN1CCN(S(=O)(=O)c2cccc(C(=O)Nc3cc(C(F)(F)F)cc(C(F)(F)F)c3)c2)CC1,.,91.6,98.2,0.6

# Additional structures follow:
SMILES,GIV-Gai inh,Sa growth 42C,Sa growth 42C second temp,HCMV NEC inh
Cc1c(CO)[nH]c2ccc(F)cc12,97.3,105.1,87.4,-29.7
Cc1ccc(C(=O)c2cn(Cc3c(F)cccc3Cl)c3nc(C)ccc3c2=O)cc1,109.1,106.5,94.8,-1.7
COc1ccc(NC(C)=S)cc1C,104.6,80.7,96.1,.
O=C(CN(Cc1ccccc1Cl)C(=O)c1ccc(F)cc1)N1CCNCC1,104.0,.,.,-6.9
CC1(C)S[C@@H]2[C@H](NC(=O)COc3ccccc3)C(=O)N2[C@H]1C(=O)O,100.5,-0.9*,-0.6*,-37.9&-9.2
CC(C)(C)S(=O)(=O)/C(C#N)=C/N1CCN(C(c2ccccc2)c2ccccc2)CC1,104.0,109.0,94.6,-4.4
CCOc1ccc(NC(=O)c2cc3oc(C)cc3n2Cc2ccc(C)cc2)cc1,105.8,90.5,85.2,-28.9
CCC(=O)N(Cc1ccco1)c1nc(-c2ccccc2)cs1,104.2,104.0,87.3,-27.3
Cc1cccc(NC(=O)Cn2cc(S(=O)(=O)N3CCCC3)c(S(=O)(=O)N3CCCC3)c2)c1C,108.8,107.4,99.4,.
O=C1CCCC2=C1C(c1cccc3ccccc13)C1=C(CCCC1=O)N2,.,92.3,86.3,-19.5
COc1ccc(NC(=O)Cn2c(Cc3ccccc3)nc3sc4c(c3c2=O)CCCC4)c(OC)c1,100.4,.,.,-13.9
CC(C)(C)c1ccc2c(c1)CN(c1cccc(C(=O)O)c1)CO2,94.7,87.9,77.1,.
COc1ccc(OCCn2cc(C(=O)C(C)(C)C)c3ccccc32)cc1,101.1,95.9,99.7,.
CC(Sc1cccc2cccc(C(=O)O)c12)C(=O)O (configuration not stated),100.0,95.0,89.6,-29.8
CCN(CC)S(=O)(=O)c1ccc2c(c1)c(=O)c(C(=O)N1CCN(c3ccccn3)CC1)cn2C,101.8,.,.,-28.9
O=C(CCc1ccccc1)N1CCN(c2ccccc2)CC1,.,106.0,85.8,-3.5
Cc1ccc(CSc2nc3nccnc3c(=O)n2CCC(C)C)cc1,109.0,98.6,82.3,-4.8
CC(C)C1c2cccn2CCN1C(=O)Nc1ccccc1 (configuration not stated),107.2,108.5,92.3,-3.2
COc1ccc(CNC(=O)c2cc3sccc3n2Cc2ccc(C)cc2)cc1,99.5,102.7,75.1,-21.6
Cc1ccc(C)c(S(=O)(=O)Nc2ccc3c(c2)CCCN3C(=O)c2cccs2)c1,100.8,112.4,77.1,.
O=C(Cn1c(=O)oc2cc(S(=O)(=O)NC3CCCC3)ccc21)Nc1ccc(F)c(F)c1,112.9,109.0,85.3,-13.3
O=c1cc(-c2ccccc2)nc(NCCc2ccccc2)[nH]1,98.4,.,.,13.8
O=C(O)CCCc1ccc(F)cc1,101.7,75.5,93.6,-14.9
O=C(NC1CCCC1)C(c1ccsc1)N(C(=O)Cc1cccs1)c1ccccc1 (configuration not stated),103.6,76.0,82.1,-28.1

# Part of the list above, showing only Sa growth 42C, HCMV NEC inh and Sa growth 42C second temp:
Molecule | Sa growth 42C | HCMV NEC inh | Sa growth 42C second temp
Cc1cc(OCc2nc(C)c(C(=O)NCC(C)C)s2)ccc1Cl | . | -17.8 | .
CN1CCN(S(=O)(=O)c2cccc(C(=O)Nc3cc(C(F)(F)F)cc(C(F)(F)F)c3)c2)CC1 | 91.6 | 0.6 | 98.2

# Next part
SMILES,GIV-Gai inh,Sa growth 42C,Sa growth 42C second temp,HCMV NEC inh
CCn1c(Sc2ccc(N)cc2Cl)nc2ccccc21,103.1,103.5,98.1,-4.5
NC(=O)c1cc2cc(Br)ccc2oc1=O,104.0,92.7,85.7,-92.3
C/C=C/C1OCC2C(C)C=C(C)C1C2C (configuration not stated),102.5,90.2,87.2,-21.7
COc1ccc(-c2nnc(SCc3cc(=O)n4ccsc4n3)o2)cc1OC,95.1,.,.,-57.3
O=C1c2ccccc2S(=O)(=O)N1Cc1cc(=O)[nH]c(=O)[nH]1,.,83.3,93.2,-7.0
COc1ccc(CNCC(O)c2nnn(C)n2)cc1OC (configuration not stated),105.7,108.9,92.5,7.1
O=C(O)CSc1nc2ccccc2n1C1CCCCC1,103.3,.,.,-15.3
O=S(=O)(Cc1ccccc1)N1CC(OCc2ccc(F)cc2)C1,100.2,.,.,4.5
Cn1cc(C(=O)Nc2ccc(Br)cc2F)c2[nH]c(=O)n(-c3ccc(F)cc3)c(=O)c21,98.4,.,.,-26.4
Cc1[nH]n(-c2ccccc2)c(=O)c1C(=O)C(F)(F)F,100.8,102.2,74.6,38.8
O=c1cc(CSc2nnnn2-c2ccccc2)[nH]c2[nH]n(-c3ccccc3)c(=O)c12,101.9,86.8,92.2,.
COc1cccc(OCc2nnc(SCc3ccccc3)n2C)c1,99.5,3.8*,0.2*,-4.6
CN(CCC#N)c1ccc(/C=C2\CC/C(=C\c3ccc(N(C)CCC#N)cc3)C2=O)cc1,-40.8*,108.4,92.7,-52.9
COc1ccc(OC)c(CC2C(=O)Nc3ccc(Cl)cc32)c1 (configuration not stated),105.7,.,.,-11.1
CSc1nc(NC(C)=O)nc(C)c1Br,101.5,107.9,90.2,-7.1
CC(=O)NCCc1nc2ccccc2n1CCOc1ccccc1C,101.1,104.3,77.2,7.7
CN(C)C(=O)C12CC3CC(CC(C3)C1)C2,.,86.5,90.2,-17.0
CCn1cc(C(=O)NCCc2ccc(OC)c(OC)c2)c(=O)c2cc(S(=O)(=O)N(C)C)ccc21,104.1,101.6,90.8,-9.9
CCOc1ccc(Br)cc1S(=O)(=O)Nc1ccc(N)cc1,.,137.6,106.7,1.1
